GCN5L2 inh = blocks human GCN5L2 histone acetyltransferase. Potency, µM (titrated, usually from 58.9 µM), for the others: top-dose activity change, negative = inhibition, most hits filed as inhibitors. actives 0.21% (n = 390,000). AID 504327. GCN5L2 HAT assay, ThioGlo1 CoA-SH fluorescence
Target sequence (Q92830 whole entry, looked up): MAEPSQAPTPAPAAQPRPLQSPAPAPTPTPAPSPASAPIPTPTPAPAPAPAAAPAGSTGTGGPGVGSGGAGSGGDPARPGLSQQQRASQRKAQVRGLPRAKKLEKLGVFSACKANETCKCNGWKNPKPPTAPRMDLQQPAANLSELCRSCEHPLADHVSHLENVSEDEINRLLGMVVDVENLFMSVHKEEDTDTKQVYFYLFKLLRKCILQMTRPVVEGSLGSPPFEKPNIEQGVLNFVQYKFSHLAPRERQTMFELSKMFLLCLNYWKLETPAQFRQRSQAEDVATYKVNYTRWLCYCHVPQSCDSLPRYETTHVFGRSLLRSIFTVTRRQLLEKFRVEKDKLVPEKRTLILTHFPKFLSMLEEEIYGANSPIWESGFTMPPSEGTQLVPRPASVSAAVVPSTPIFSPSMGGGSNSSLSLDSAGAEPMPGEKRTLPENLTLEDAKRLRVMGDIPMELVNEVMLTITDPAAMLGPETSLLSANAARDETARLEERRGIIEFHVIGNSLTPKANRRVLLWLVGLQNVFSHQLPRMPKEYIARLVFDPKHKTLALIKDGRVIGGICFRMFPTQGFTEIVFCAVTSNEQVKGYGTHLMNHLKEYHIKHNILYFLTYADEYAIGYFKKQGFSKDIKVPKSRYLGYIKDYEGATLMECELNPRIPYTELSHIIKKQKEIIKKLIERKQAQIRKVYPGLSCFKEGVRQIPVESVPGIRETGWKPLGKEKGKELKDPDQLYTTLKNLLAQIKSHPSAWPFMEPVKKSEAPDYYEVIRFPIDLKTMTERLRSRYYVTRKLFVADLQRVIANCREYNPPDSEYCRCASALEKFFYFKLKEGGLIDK
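ThioGlo1-coupled HAT assay: 20nM GCN5L2, 70uM acetyl-CoA, 75uM H3(1-25) peptide, pH 7.5. Fluorescence read at 340/540nm at start and after 20 min at room temperature.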
N370S GC mod = inhibits or activates N370S mutant glucocerebrosidase | P04062 | N370S GC spleen homogenate, 4MU-glucoside fluorescence | Potency, µM (doses to about 59.4 µM), without a hit: at the top dose activity change, negative = inhibition, usual class: inhibitors | actives 0.092% (n = 330,000);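 further: 0% = full enzyme activity and -100% = no enzyme basal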
Active calls of the source: *; ? = inconclusive; nt = not tested or not shown; [ ] = another dose, or the depositor's remark. The call rests on the fitted dose curve; in most records, active means well fitted curve in the direction sought with a large enough effect; inconclusive means small, poorly fitted or top-dose-only effect, or another doubt; inactive means no such curve, though single readings can be large; an effect the other way counts as inactive or inconclusive. Unless noted, on the % scale 0 is the no-effect control and ±100 the full control effect; potency means the concentration at half of the fitted maximal effect.

canonical_smiles | GCN5L2 inh | N370S GC mod
NC(=O)NCCCC(=O)OCC(=O)c1ccc2ccccc2c1 | -10% | 2%
COc1cccc(CNC(=O)CCc2nnc3n(CC(C)C)c(=O)c4ccccc4n23)c1 | 1% | nt
CC1(C)CC(=O)C(C=NCCCN2CCOCC2)=C(O)C1 | 0% | 3%
O=C(Cc1csc2ccccc12)NCc1ccccc1F | -3% | nt
CCCCN(C(=O)c1oc2ccc(OCC)cc2c1C)c1c(N)n(CC(C)C)c(=O)[nH]c1=O | 0% | 4%
Cc1cc(S(=O)(=O)N(Cc2ccc(F)cc2)CC2CCCO2)ccc1-n1cnnn1 (stereo not given) | -7% | 1%
CCOC(=O)c1c(C)[nH]c(C(=O)OCC(=O)Nc2cc(C)nn2-c2ccccc2)c1C | -7% | -5%
CCN(CC)CCCn1c(SCC(=O)NCC2CCCO2)nc2ccccc2c1=O (stereo not given) | -2% | -11%
O=C(CSc1nnc(NC(=O)c2ccccc2[N+](=O)[O-])s1)NCC1CCCO1 (stereo not given) | -1% | -10%
CCOc1cc(NS(C)(=O)=O)c(OCC)cc1NC(=O)c1cccs1 | 1% | 6%
O=C(Cn1c(CN2CCCCC2)nc2ccccc2c1=O)NCc1ccco1 | -5% | -8%
O=C(CN(Cc1ccco1)C(=O)Cn1nnc(-c2ccc(F)cc2)n1)NC1CCCC1 | 4% | 14%
CCOc1ccc(NC(=O)CN(C)C(=O)C(C)N2C(=O)c3ccccc3C2=O)cc1OCC (stereo not given) | -2% | nt
CN(C)c1ccc(S(=O)(=O)NCC(=O)NCCOc2ccccc2F)cc1[N+](=O)[O-] | -14% | -10%
O=c1[nH]c(Cn2nnc(-c3ccccc3)n2)nc2scc(-c3ccccc3)c12 | -6% | 4%
CCOc1cc(C(=O)NCc2ccccc2)ccc1OCC(=O)N1CCCCC1 | -7% | nt
CCOCCCNC(=O)CN1C(=O)CSc2ccccc21 | 2% | -16%
COC(=O)CNS(=O)(=O)c1ccc(Cc2ccc(S(=O)(=O)NCC(=O)OC)cc2)cc1 | 1% | ?
CC(C)(C)c1ccc(OC2=CS(=O)(=O)c3ccccc32)cc1 | -8% | 27%
COc1cc(C2C(C#N)=C(N)Oc3n[nH]c(-c4ccccn4)c32)cc(OC)c1OC (stereo not given) | -10% | 0%

Other results:
canonical_smiles | GCN5L2 inh | N370S GC mod
COc1ccc(N2CCN(c3ccc(NC(=O)NN)cc3)CC2)cc1 | -2% | -14%
O=C(NC1CCCC1)c1cnn2c(C(F)(F)F)cc(-c3ccc4c(c3)OCO4)nc12 | -5% | 6%
CCOc1ccc(CC(=O)NCc2ccc3c(c2)CCN3C(C)=O)cc1OCC | 3% | nt
O=C(O)c1ccccc1NCCO | -7% | 14%
O=S(=O)(c1ccc(Nc2ccc(-c3ccc4c(c3)OCCO4)nn2)cc1)N1CCCC1 | -15% | -7%
COCCCNC(=O)Cn1c(=O)n(Cc2ccc(F)cc2)c(=O)c2sccc21 | -4% | -3%
CCC(C(=O)NCc1ccc(F)cc1)n1nc(C)n2c(cc3occc32)c1=O (stereo not given) | -3% | -1%
Cc1cc(C(=O)N/N=C\c2cc(C(C)(C)C)ccc2O)n[nH]1 | ? | 5%
CCc1ccc(C(=O)OCC(=O)N(CC)c2c(N)n(Cc3ccccc3)c(=O)[nH]c2=O)cc1 | 3% | nt
Cc1ccc(-n2ncc(C#N)c2/N=C/N2CCCCCC2)cc1 | -4% | 3%
c1ccc2c(c1)ccc1nnc(SCc3ccc4c(c3)OCO4)n12 | -16% | 17%
CC(=O)c1ccc(NC(=O)CC2Nc3cc(C)c(C)cc3NC2=O)cc1 (stereo not given) | 0% | nt
COc1ccc(/C=C(/NC(=O)c2ccc([N+](=O)[O-])cc2)C(=O)NC(C)(C)C)cc1 | -3% | -8%
O=S(=O)(Nc1ccccc1F)c1ccc(Cl)nc1 | -6% | nt
O=C(Nc1nccs1)c1cn(-c2ccccc2)nc1-c1ccccc1 | -6%[0.501 µM] | 1%
COc1ccc(C(=O)NC(=S)Nc2cccc3ncccc23)cc1[N+](=O)[O-] | -4% | -9%
COc1ccc(Nc2oc(-c3ccccc3Cl)nc2C#N)cc1 | 1% | -17%
COCCn1cnc2c1c(=O)n(CC(=O)OCC(=O)NCCCc1ccccc1)c(=O)n2Cc1ccccc1 | 0% | 9%
Cc1nc2c(C(=O)NCc3ccc(F)cc3)c[nH]n2c(=O)c1Cl | -6% | 1%
COc1ccccc1NC(=O)c1ccc2snnc2c1 | -5% | 3%

Taken from above.
Entry of `c1ccc2c(c1)ccc1nnc(SCc3ccc4c(c3)OCO4)n12` under N370S GC mod: 17%
Entry of `CCOc1ccc(CC(=O)NCc2ccc3c(c2)CCN3C(C)=O)cc1OCC` under GCN5L2 inh: 3%
Entry of `Cc1cc(C(=O)N/N=C\c2cc(C(C)(C)C)ccc2O)n[nH]1` under N370S GC mod: 5%
Entry of `COc1ccc(N2CCN(c3ccc(NC(=O)NN)cc3)CC2)cc1` under N370S GC mod: -14%

Next section.
canonical_smiles | GCN5L2 inh | N370S GC mod
COc1ccccc1NC(=O)NCc1ccccc1F | -4% | -14%
CC1CCCN(C(=S)NCc2ccccc2)C1 (stereo not given) | 1% | 23%
O=C(NCc1ccccc1F)c1cccc(S(=O)(=O)NCc2ccccc2)c1 | -8% | -15%
N#Cc1ccc(Cn2c(=O)c(C#N)c3n(c2=O)CCC3)cc1 | -1% | -21%
C=CCSC1=N/C(=C\c2cccnc2)C(=O)N1c1ccc(OC)cc1 | 3% | -6%
CCN(CC1CCCO1)C(=O)C1CCN(C2CCN(Cc3ccccc3C)CC2)CC1 (stereo not given) | -2% | 2%
O=C1NC(=O)C2C1C(c1cccs1)NN2Cc1ccccc1 (stereo not given) | 10% | 5%
Cc1ccccc1OCc1nnc(SCC(=O)NC2CCCCC2)o1 | -6% | -10%
CCOC(=O)c1c(NC(=O)c2cccs2)sc2c1CCCC2 | 0% | -16%
OC(COCC1COc2ccccc2O1)CN1CCN(c2ccccn2)CC1 (stereo not given) | 2% | 0%[2.35 µM]
COc1ccc(CCC(=O)OCC(=O)Nc2sccc2C(N)=O)cc1 | 4% | nt
O=C(CC12CC3CC(C1)CC(CC(=O)NC1=NCCS1)(C3)C2)NC1=NCCS1 | 3% | -14%
O=C(NNC(=S)NCC1CCCO1)c1ccc(S(=O)(=O)N2CCOCC2)cc1 (stereo not given) | 0% | 3%
CCOC(=O)c1cc(-c2ccccc2)n(CCC(=O)NC(C)CC)c1C (stereo not given) | -3% | 4%
COc1ccc(CCNC(=O)CCCn2c(=O)c3ccccc3n(CC(=O)Nc3ccc(C)cc3Cl)c2=O)cc1OC | 0% | nt
N#CCC(=O)Nc1ccc(C(=O)OC(C(=O)Nc2cc(C(F)(F)F)ccc2Cl)c2ccccc2)cc1 (stereo not given) | 0% | 11%
Fc1ccc(Oc2nccc(-c3ccc(Cl)cc3)n2)cc1 | 1% | 9%
Cc1ccc(NC(=O)C2CCN(S(=O)(=O)c3cccc4nonc34)CC2)c(Cl)c1 | -1% | nt
COC(=O)C(C)Oc1ccc(=O)[nH]n1 (stereo not given) | -13% | 8%
CCCCn1c(N)c(N(CC(C)C)C(=O)CN2C(=O)NC3(CC(C)CC(C)(C)C3)C2=O)c(=O)[nH]c1=O (stereo not given) | -8% | -9%

The list goes on.
canonical_smiles | GCN5L2 inh | N370S GC mod
CCOC(=O)C1CCCN(S(=O)(=O)c2cc(-c3cc(C)no3)ccc2OC)C1 (stereo not given) | 2% | nt
COc1cc(CN(C(=O)c2ccccc2Br)c2ccccn2)cc(OC)c1OC | -3% | nt
Cn1ccs/c1=N\S(=O)(=O)c1ccc(F)cc1 | -12% | -25%
O=C(Cn1cnnn1)Nc1cccc([N+](=O)[O-])c1 | -7% | -4%
O=C(COC(=O)c1cc([N+](=O)[O-])ccc1NCCO)c1ccccc1 | -2% | -16%
CC(C)C(=O)OC1CCS(=O)(=O)c2sccc21 (stereo not given) | -11% | 14%
O=C(CCCCn1c(=O)c2ccccc2n(CC(=O)NC2CCCC2)c1=O)NCc1ccco1 | 2% | 9%
Cc1ccc(C(=O)Nc2ncccc2C)cc1S(=O)(=O)N1CCOCC1 | -2% | nt
CC(C)CN1C(=O)NC(NC(=O)c2cccnc2)(C(F)(F)F)C1=O (stereo not given) | -8% | -25%
CCS(=O)(=O)NCCc1csc(-c2cccnc2)n1 | -2% | -7%
CSc1ccccc1C(=O)Nc1nc2ccccc2[nH]1 | -10% | -2%
Cc1cccc(-n2ccnc2SCC(=O)O)c1C | -4% | 4%
Cc1ccc(CNC(=O)Cn2c3ncccc3c(=O)n2-c2ccccc2)cc1 | -7% | nt
O=c1[nH]c(C2CCN(S(=O)(=O)Cc3ccccc3)CC2)nc2c1nnn2Cc1ccccc1 | -1% | -17%
O=c1cc(N2CCCCCC2)[nH]c(=O)n1-c1ccccc1Cl | -1% | -1%
COc1ccc(C(=O)CCC(=O)Nc2ccc(Cl)cc2)cc1 | -15% | -3%
COc1ccc(-c2nnc(SC(C)C(=O)Nc3nccs3)n2-c2ccccc2)cc1OC (stereo not given) | -5% | -7%
Cc1ccc2c(c1)C1(OCCCO1)C(=O)N2CC#N | 1% | -10%
COc1ccc(CCNC(=O)c2ccc3[nH]c(C)c(C)c3c2)cc1OC | -2% | nt
CSc1ccc(/C=C/C(=O)c2ccc(NC(C)=O)cc2)cc1 | ? | -7%

One compound at a time (already shown).
`Cn1ccs/c1=N\S(=O)(=O)c1ccc(F)cc1` is listed with GCN5L2 inh = -12%; N370S GC mod = -25%
`CC(C)CN1C(=O)NC(NC(=O)c2cccnc2)(C(F)(F)F)C1=O` (stereo not given) is listed with GCN5L2 inh = -8%; N370S GC mod = -25%

Two neighbouring entries out of the list so far:
canonical_smiles | GCN5L2 inh | N370S GC mod
NC(=O)NCCCC(=O)OCC(=O)c1ccc2ccccc2c1 | -10% | 2%
COc1cccc(CNC(=O)CCc2nnc3n(CC(C)C)c(=O)c4ccccc4n23)c1 | 1% | nt

The listing continues:
canonical_smiles | GCN5L2 inh | N370S GC mod
N#Cc1ccccc1CSC1=NCCS1 | -1% | 3%
COc1cc(C(=O)/C=C/c2cccnc2)c([N+](=O)[O-])cc1OC | -5% | -5%
CCOc1ccc(NC(=O)Cn2nnc(C(=O)OC)c2C(=O)OC)cc1 | -2% | nt
CC1(C)Cc2c(sc3nc(C4CCCCC4)n(N)c(=O)c23)CO1 | 2% | 9%
COC(=O)c1[nH]c2ccccc2c1NC(=O)Oc1ccccc1 | -5% | -6%
O=C1CC(c2ccccc2)CC(O)=C1C=NCc1ccc(Cl)cc1 (stereo not given) | ? | 1%
CN(c1ccccc1)S(=O)(=O)c1ccc(NC(=S)NC(=O)c2ccccc2)cc1 | 1% | 4%
CCOc1ccc(N2CC(C(=O)N3CCCC3)CC2=O)cc1 (stereo not given) | -3% | -3%
CCC(C)C(=O)Nc1cc([N+](=O)[O-])ccc1Cl (stereo not given) | -4% | 1%
O=C(Nc1cc(C(F)(F)F)ccc1F)C1CCC1 | 1% | 6%
CC(C)(C)OC(=O)[C@H](Cc1ccccc1)NC(=O)c1nc[nH]c1C(=O)N1CCN(C(=O)OC(C)(C)C)CC1 | -2% | 1%
Cc1n[nH]c(=S)n1-c1ccc(Cl)cc1 | 36%[activator] | 4%
Cc1ccc(S(=O)(=O)N(CCCO)CC(O)CON=C2c3ccccc3-c3ccccc32)cc1 (stereo not given) | -10% | -17%
O=C(c1cc(Cl)ccc1Cl)N1CCOCC1 | 1% | 4%
O=C(Cc1ccc(-c2ccccc2)cc1)Nc1ncccc1O | -7% | -10%
CCOP(=O)(OCC)C(NC(=O)Nc1ccc(C)cc1)C(N)=O (stereo not given) | -5% | 2%
Cc1ccc(S(=O)(=O)N(C)C)cc1NC(=O)CCNC(=O)c1ccco1 | -1% | -9%
N#CC1=C(N)NC(=S)C(C(N)=O)C1c1ccc(Cl)cc1Cl (stereo not given) | -5% | 9%
Cc1ccc(C)c(S(=O)(=O)Nc2ccc(S(=O)(=O)Nc3ncccn3)cc2)c1 | -6% | nt
c1ccc2c(c1)[nH]c1ccccc12 | nt | 4%

Other records follow:
canonical_smiles | GCN5L2 inh | N370S GC mod
Cc1cccn2c(=O)c3cc(C#N)c(=N)n(CCN4CCOCC4)c3nc12 | -3% | 14%
CN(Cc1c(F)cccc1Cl)C(=O)c1ccc(NC(=O)CC2SC(N3CCCC3)=NC2=O)cc1 (stereo not given) | -7% | -25%
COc1ccc(-c2[nH]nc3nc(-c4cc(OC)c(OC)c(OC)c4)cc(C(=O)O)c23)cc1 | -4% | nt
Cc1ccc(C)c(OCC(=O)N2CCN(c3ncccn3)CC2)c1 | 1% | nt
CC1(C)Cc2c(c(N3CCOCC3)nc3sc4c(NCC5CCCO5)nnnc4c23)CS1 (stereo not given) | ? | ?
COc1ccc(OC)c2c1sc(=NC(=O)c1cccc(N3C(=O)CCC3=O)c1)n2C | ? | 2%
CC1CCC2(CC1)NC(=O)N(CC(=O)NCc1ccc(F)cc1)C2=O (stereo not given) | -2% | nt
O=C(Nc1ccc(F)c(Cl)c1)Nc1cnccn1 | 10% | 4%
COc1cccc2c1-c1c(C(=O)O)cccc1C2=O | 2% | -8%
CC(Sc1nnnn1C1CCCCC1)C(=O)O (stereo not given) | -7% | 3%
CCCCn1nnnc1SCC(=O)NCc1ccco1 | nt | 21%
COc1cccc(CNC(=O)CCC(=O)n2ncc3cc(C)ccc32)c1OC | 1% | -2%
O=C(NC1CCCCC1)NC1C2CC3CC(C2)CC1C3 (stereo not given) | -3% | -5%
CCOc1ccc(N/C=C/C(=O)c2ccccc2)c([N+](=O)[O-])c1 | 37%[activator] | 13%

High-throughput results (PubChem BioAssay)

Some of the compounds tested; most or all hits stand in other tables.
